Assay outcomes from PubChem.
Sfp inh = blocks B. subtilis Sfp PPTase activity; Q9F4F7; Biochemical Sfp PPTase activity, qHTS; Potency, µM, for inactives: max response, negative = inhibition, actives largely listed as inhibitors; 310,000 compounds, 3.5% hits; active means well fitted inhibition curve with a large enough effect; inconclusive means small, poorly fitted or top-dose-only effect, or another doubt; inactive means no such curve, though single readings can be large or run the other way;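 further: the enzyme is Sfp with the accession as filed and its product quenches rhodamine fluorescence; potency means the concentration at half of the fitted maximal effect; 0% = enzyme reaction without inhibitor and -100% = no enzyme wells; top concentration of the series not given in the record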
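Buffer: 50 mM Hepes-Na pH 7.6, 10 mM MgCl2, 0.01% Nonidet P-40, 0.01% BSA. Enzyme 15 nM, pre-exposed to compound 15 min; substrates then added and fluorescence change tracked over 30 min.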
Menin-MLL FL inh = inhibitors of human menin-MLL interaction, wild-type MLL peptide. Fluorescence polarization, fluorescein-MLL peptide displacement from menin. FP activity change, % at 61.4 µM. 290,000 tested, under 10 active. AID 1766; inconclusive = falling polarisation curve, or a change in total fluorescence; inactive = total fluorescence flat and polarisation flat or rising; no compound was filed as active; the % refers to the polarisation; negative = inhibition;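 further: % of control where 0% means no effect; inhibitors lower the polarisation; unlabelled MLL peptide was the positive control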
* hit, by the source's call; ? = inconclusive; & = joins results of further samples; [ ] = remark or other dose. An excerpt (hit frequency here may not be typical).

SMILES	Sfp inh	Menin-MLL FL inh
CC1(C(=O)NCCCNc2ncc(C(F)(F)F)cc2Cl)C=CC2(CCCCC2)N1C(=O)c1ccccc1 (stereo not given)	11.4%	2.5
Cn1c(=O)c2c(nc(N3CCOCC3)n2CC(=O)c2ccccc2)n(C)c1=O	-3.4%	2.2
COc1ccc(-c2ccc(C3C4C=CCC(C)C4C(=O)N3Cc3ccccc3)c(F)c2)cc1 (stereo not given)	?	0.2
CCn1c(=O)[nH]c2ccccc21	5.1%	?
CO[C@H]1OC2O[C@@]3(C)CC[C@H]4[C@H](C)CC[C@@H]([C@H]1C)[C@@]24OO3 (stereo not given in full)	21.3%	0.5
CCCCCCN(C(=O)CCCCCN1C(=O)NC(c2ccc(-c3ccccc3)cc2)C(C(=O)OCc2ccccc2)=C1C)C(C(=O)NCCCC)c1ccc(OCC(=O)O)c(C(=O)O)c1 (stereo not given)	-1.6%	0.3
CCn1ncc(CNC(=O)c2cccc([N+](=O)[O-])c2)c1C	17.0%	0.1
O=C1c2ccccc2S(=O)(=O)N1CCCCN1CCN(c2ncccn2)CC1	13.0%	22.2
CC1=C(C(=O)OCc2ccccc2)C(C2CCCCC2)NC(=O)N1CCCCCC(=O)O (stereo not given)	-3.2%	1.0
CCN(CC)CCNc1ncnc2c1[nH]c1ccc(OC)cc12	3.2%	0.1
CC(=O)OC1C=C[C@@H](OC(C)=O)C1 (stereo not given in full)	-13.7%	-2.6
Clc1ccc(-c2nn3c(-c4ccncc4)nnc3s2)c(Cl)c1	6.7%	0.7
COc1cc(C)c(CNc2ccc(OC)c(OC)c2)cc1C	-8.8%	?
COc1ccc2c(c1)O[C@@H](c1ccc3c(c1)OCO3)[C@H](OC(=O)NCCc1ccc(OC)c(OC)c1)C2=O	6.2%	0.1
C=CC(C)(C)c1[nH]c2ccccc2c1C1=C(O)C(=O)C(c2c[nH]c3c(CC=C(C)C)cccc23)=C(O)C1=O	-23.7%	85.2[activator]
COC(=O)C1=C[C@@H](C(=O)OC)C2C3=C(C(=O)[C@@]2(C)NC(=O)c2ccccc2)[C@H](c2ccccc2)[C@@H]2C(=O)N(c4ccccc4)C(=O)[C@@H]2[C@@H]3C1 (stereo not given in full)	22.1%	6.5
CCOC(=O)n1ccn(C)c1=S	-70.7%&13.0%	2.0
COc1ccc(Nc2ncnc3ccc(OC)cc23)cc1	19.7%	1.0
COCCNC(=O)C1(C(F)(F)F)C/C(=C\Cc2ccccc2)CCCO1 (stereo not given)	-2.6%	-7.8
O=C(Cn1c2ccc(F)cc2c2nc3n(c(=O)c21)CCS3)Nc1ccccc1F	4.0%	2.2
COc1cc(/C=C/C(=O)N2CCCCC2=O)cc(OC)c1OC	-12.1%	21.2
OC1OC[C@H](O)[C@@H](O)[C@H]1O (stereo not given in full)	5.5%	0.7
CCN(CC)CCN(C(=O)c1ccc(N2C(=O)CCC2=O)cc1)c1nc2cc3c(cc2s1)OCO3	-12.8%	1.5
CCCCCCN(C(=O)CCCCCN1C(=O)NC(c2ccc(-c3ccccc3)cc2)C(C(=O)OCc2ccccc2)=C1C)C(C(=O)NCCCC)c1ccccc1 (stereo not given)	9.5%&22.7%	-0.8&-0.1
Cc1cc(C(=O)NCCc2ccc(S(=O)(=O)NC(=O)NN3CCCCCC3)cc2)no1	?	2.9
CC(C)OC(=O)c1cc2c(OC[C@@H](O)CNC(C)(C)C)cccc2[nH]1	1.9%	-7.3
CCOc1ccc(S(=O)(=O)n2ccnc2C)cc1	12.3%	-0.5
CCCn1nnnc1SCC(=O)NNC(=O)C1CCCCC1	4.0%	2.9
CC1CCC2C(=O)N3C(CCC(C)C3c3ccc(-c4ccco4)cc3)C(=O)N2C1c1ccc(-c2ccco2)cc1 (stereo not given)	?	7.1[11.7 µM]
c1ccc(N(c2ccccc2)c2nc(N3CCOCC3)nc(N3CCOCC3)n2)cc1	0.6%	1.2
Cn1nc(OC(=O)Nc2ccccc2)cc1C(F)(F)F	10.5%	0.0
O=C(NC(c1ccccc1)c1cc(Cl)c2cccnc2c1O)c1cccnc1 (stereo not given)	-7.2%	-0.2
O=Cc1c2[nH]c3ccccc3c2cc2[nH]c3ccccc3c12	-4.7%&-6.0%&-15.4%	?
CCOC(=O)OCC1OC(CCc2ccccc2)CCC1Oc1ccc(OC)cc1 (stereo not given)	12.6%	-0.1[11.7 µM]
CC[C@H](C)[C@H](N)C(=O)N[C@@H](CC(N)=O)C(=O)N1CCC[C@H]1C(=O)N[C@H](C(=O)N[C@@H](Cc1ccc(O)cc1)C(=O)N[C@@H](CCCN=C(N)N)C(=O)N[C@@H](CC(C)C)C(=O)N[C@@H](CCCN=C(N)N)C(=O)N[C@@H](Cc1ccc(O)cc1)C(N)=O)[C@@H](C)CC	1.0%	4.3
O=C(c1ccccc1)C1O[C@H]1c1ccccc1 (stereo not given in full)	-2.7%	-1.3
CC1(C)C(OC(=O)CCC(=O)O)CC[C@]2(C)C1CC[C@@]1(C)C2C(=O)C=C2[C@@H]3C[C@@](C)(C(=O)O)CC[C@]3(C)CCC21C (stereo not given in full)	-4.9%	-0.3
CC(=O)Nc1ccn(C2CC3OCC(NC(=O)C(Cc4ccccc4)NC(=O)OC(C)(C)C)C3O2)c(=O)n1 (stereo not given)	16.5%	-3.4
CCCn1c(-c2ccc(F)cc2)nc2c(NC3CCN(Cc4ccccc4)C3)nc(C)nc21 (stereo not given)	4.4%	-7.5
COC(=O)C1CCN(CC(=O)Nc2cc(Cl)ccc2OC)CC1	9.7%	-3.1
CC1(C)CC(=O)c2c(oc3cc4c(cc23)OCO4)C1	16.8%	-0.1
Cc1nnc2sc(SCc3ccccc3)nn2c1=O	5.3%	1.9
O=[N+]([O-])c1ccc(-c2ccc(/C=N/c3c(-c4ccco4)nc4ccccn34)o2)c(Cl)c1	-0.6%	-1.3
CCN1C(=O)[C@H]2[C@H]3[C@H](O)[C@H](O)C/C(=N/OC[C@@H](O)[C@H]4O[C@H]5OC(C)(C)O[C@H]5[C@@H]4O)[C@@H]3CC[C@@H]2C1=O	24.5%	-0.4[11.7 µM]
COc1c2ccoc2nc2c(OC)c(OC[C@H](O)C(C)(C)O)ccc12	7.4%	-0.6[24.8 µM]
Cc1ccc2c(c1)c1ncnc(N3CCC4(CC3)OCCO4)c1n2C	-0.6%	0.4
Nc1c2c(nc3c1CCC3)CCCC2	3.2%&4.7%	-2.2&52.8
C=Cc1ccc([C@H]2N[C@@H](C(=O)O)CC[C@@H]2C)cc1	-5.5%	6.8[11.7 µM]
CC(C)(C)CC(C)(C)c1cc(Cc2cc(C(C)(C)CC(C)(C)C)cc(-n3nc4ccccc4n3)c2O)c(O)c(-n2nc3ccccc3n2)c1	14.3%	1.1
C[C@H](N)C(=O)O	16.5%	-0.8

Part of the list above, field by field:
CC(C)(C)CC(C)(C)c1cc(Cc2cc(C(C)(C)CC(C)(C)C)cc(-n3nc4ccccc4n3)c2O)c(O)c(-n2nc3ccccc3n2)c1
  Sfp inh = 14.3%
  Menin-MLL FL inh = 1.1

O=C(NC(c1ccccc1)c1cc(Cl)c2cccnc2c1O)c1cccnc1 (stereo not given)
  Sfp inh = -7.2%
  Menin-MLL FL inh = -0.2

Nc1c2c(nc3c1CCC3)CCCC2
  Sfp inh = 3.2%&4.7%
  Menin-MLL FL inh = -2.2&52.8

O=C(c1ccccc1)C1O[C@H]1c1ccccc1 (stereo not given in full)
  Sfp inh = -2.7%
  Menin-MLL FL inh = -1.3

Next section:
SMILES	Sfp inh	Menin-MLL FL inh
NS(=O)(=O)C#Cc1ccccc1	8.4%	-0.2
CCCCCCCCCCCCCCCC(=O)C(F)(F)F	15.0%	?
COc1cc2c(cc1OC)OC(C)(C)C=C2	-15.9%	-5.5
CNC(=S)N(Cc1ccc(OC)cc1)C1CC(=O)N(c2ccc(C(=O)OC)cc2)C1=O (stereo not given)	-13.8%	1.2
O=[N+]([O-])O[C@H]1CO[C@H]2[C@@H]1OC[C@H]2O	6.5%	3.0
C=CCOC(=O)C1(C(NC(=O)OC)c2ccccc2)C(=O)Cc2ccccc21 (stereo not given)	-8.9%	-1.0
COC(=O)c1ccccc1S(=O)(=O)N(Cc1cc2cc3c(cc2[nH]c1=O)OCO3)C1CCCCC1	3.0%	-1.9
c1ccc(-c2csc(-c3nc4ccccc4[nH]3)n2)cc1	?	?
O=C(N[C@@H](CO)[C@@H](O)c1ccc([N+](=O)[O-])cc1)C(Cl)Cl	-2.5%	-2.2[24.8 µM]
O=C(Nc1ccccc1Cl)C1CC(=O)n2c(nc3ccccc32)N1 (stereo not given)	21.0%	-2.3
Cc1cccc(N2CSC3=C(C#N)C(c4ccc(C)o4)CC(=O)N3C2)c1 (stereo not given)	2.82µM*	?
CO[C@H]1COC(=O)C/C=C\[C@@H](C)COC(=O)[C@H]2CCCN2C(=O)C/C=C\[C@H]1C	10.7%	-1.0[11.7 µM]
CCn1cc(C(=O)NCc2ccc3c(c2)OCO3)c(=O)c2ccc(C)nc21	10.6%	1.3
CC[C@H](C)[C@H](NC(=O)[C@H](Cc1ccccc1)NC(=O)[C@H](CCC(=O)O)NC(=O)[C@H](CCCCN)NC(=O)[C@H](C)NC(=O)[C@H](C)NC(=O)[C@H](CCC(N)=O)NC(=O)CNC(=O)[C@H](CCC(=O)O)NC(=O)[C@H](CC(C)C)NC(=O)[C@H](Cc1ccc(O)cc1)NC(=O)[C@H](CO)NC(=O)[C@H](CO)NC(=O)[C@@H](NC(=O)[C@H](CC(=O)O)NC(=O)[C@H](CO)NC(=O)[C@@H](NC(=O)[C@H](Cc1ccccc1)NC(=O)[C@@H](NC(=O)CNC(=O)[C@H](CCC(=O)O)NC(=O)[C@H](C)NC(=O)[C@@H](N)Cc1cnc[nH]1)[C@@H](C)O)[C@@H](C)O)C(C)C)C(=O)N[C@@H](C)C(=O)N[C@@H](Cc1c[nH]c2ccccc12)C(=O)N[C@@H](CC(C)C)C(=O)N[C@H](C(=O)N[C@@H](CCCCN)C(N)=O)C(C)C	3.5%	-0.4
O=C1C=C[C@@H](O)[C@H]2[C@@H]3C(=O)N(c4cccc(Oc5ccccc5)c4)C(=O)[C@@H]3CC[C@H]12	-7.0%	1.9[11.7 µM]
O=c1[nH]c(=O)c2ncc(-c3ccc(Cl)cc3)nc2[nH]1	-3.2%	14.2
CCc1ccc(C2NC(C(=O)O)CS2)cc1 (stereo not given)	-11.7%	0.3
Cc1c(Cc2ccccc2)sc(N)c1C(N)=O	39.8µM*	9.7
CCOC(=O)C1=C[C@@]2(CC)CCCN3CCc4c(n1c1ccccc41)C32 (stereo not given in full)	-17.7%	-3.1
O=C1c2ccccc2C(Cc2ccncc2)(Cc2ccncc2)c2ccccc21	-13.3%	-19.2
C=C(C)C(=O)c1ccc(F)cc1	-18.0%	0.6
COC(=O)[C@H]1O[C@@H](c2cc(OC)c(C)c(OC)c2O)[C@H](C)[C@@H](O)[C@H]1C	-17.3%	-4.9
Cc1ccc(N=c2c([N+](=O)[O-])nn(-c3ccc4c(c3)OCCO4)n2O)c(Cl)c1	-15.5%	3.2
C[C@@H]1C=C[C@](Cc2ccccc2)(C(=O)NCCN2CCOCC2)N1C(=O)c1ccccc1	10.1%	1.1
CO[C@H]1/C=C/O[C@@]2(C)Oc3c(C)c(O)c4c(O)c(c(/C=N\N5CCN(C6CCCC6)CC5)c(O)c4c3C2=O)NC(=O)/C(C)=C\C=C\[C@H](C)[C@H](O)[C@@H](C)[C@@H](O)[C@@H](C)[C@H](OC(C)=O)[C@@H]1C	-19.1%	3.3
O=C(CSc1nc2c(cnn2-c2ccc(F)cc2)c(=O)[nH]1)N1N=C(c2cccs2)CC1c1ccc(F)cc1 (stereo not given)	10.3%	-0.9
CO/N=C\[C@@H](NS(=O)(=O)c1ccc(C)cc1)[C@H](C)/C=C\CC(=O)OC	-0.7%	2.6[11.7 µM]
C[C@@H]1C[C@](C)(C(=O)c2ccc3c(c2)OCO3)C=C1c1ccc2c(c1)OCO2	-4.4%	-1.5
COc1ccc(COC(=O)N/N=C2/C[C@@H](O)[C@@H](O)[C@@H]3[C@@H]4C(=O)N(C(C)(C)C)C(=O)[C@H]4CC[C@H]23)cc1	7.3%	2.6[11.7 µM]
Cc1cccc2c3c(ccc12)C1=C(C(=O)C3=O)[C@@H](C)CO1	-7.0%	0.4
Cc1nc2ccccc2c(=O)n1/N=C/c1ccc([N+](=O)[O-])o1	14.4%	3.0
COc1ccc(OCc2nnc(SCC(=O)c3c(N)n(C)c(=O)n(C)c3=O)n2-c2ccccc2F)cc1	-13.9%	1.5
CCCC/C=C/[C@H](c1ccccc1)[C@H](CO)Cc1ccc([N+](=O)[O-])cc1	11.0%	-0.7
CCCCCCOC(=O)C1(O)CC2OC1(C)n1c3ccccc3c3c4c(c5c6ccccc6n2c5c31)C(=O)NC4 (stereo not given)	17.3%&-3.9%	-2.0[2.29 µM]
